# From PubChem BioAssay
# VDR inhibitor: inhibitors of human vitamin D receptor | actives 0.93% (n = 400,000) | AID 504847 | Potency, µM, for the others: max response, negative = inhibition, actives largely listed as inhibitors | P11473 | VDR-SRC2-3 peptide fluorescence polarization, 2 h; active = well fitted inhibition curve with a large enough effect; inconclusive = small, poorly fitted or top-dose-only effect, or another doubt; inactive = no such curve, though single readings can be large or run the other way; also: series mostly up to about 120 µM
# Target sequence (P11473 whole entry, looked up): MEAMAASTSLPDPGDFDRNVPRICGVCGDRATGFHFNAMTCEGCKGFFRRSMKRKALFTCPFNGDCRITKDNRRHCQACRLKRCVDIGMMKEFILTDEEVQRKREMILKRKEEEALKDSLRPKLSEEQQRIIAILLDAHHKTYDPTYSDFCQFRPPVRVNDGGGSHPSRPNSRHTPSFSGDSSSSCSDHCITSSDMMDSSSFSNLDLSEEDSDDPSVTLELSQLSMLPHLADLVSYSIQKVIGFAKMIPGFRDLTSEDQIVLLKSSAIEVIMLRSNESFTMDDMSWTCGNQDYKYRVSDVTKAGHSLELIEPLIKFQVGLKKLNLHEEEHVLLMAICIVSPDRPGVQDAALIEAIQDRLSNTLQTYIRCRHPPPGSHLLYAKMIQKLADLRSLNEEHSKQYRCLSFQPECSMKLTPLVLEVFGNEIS
#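 VDR–SRC2-3 interaction, FP format. Cmpds 23 nl via pintool, brief spin, 2 h ambient incubation.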
# * marks the source's active call; other numbers are inactive results; ? = inconclusive; [ ] = another dose, or the depositor's remark. % is scaled to controls: 0 for no effect and ±100 for the full control effect; potency is read from the fitted curve at half-maximal effect.
SMILES,VDR inhibitor
O=S(=O)(Cc1ccccc1)N1CCC(N2CCN(c3ccccc3)CC2)CC1,-12%
CCOC(=O)CN1N=C(c2ccc(Cl)s2)CSC1=O,-23%
CCN(CC)CCCN(Cc1cc2cc3c(cc2[nH]c1=O)OCO3)C(=S)Nc1ccccc1,17%
CCCC(=O)N1CCN(c2ccc(NC(=O)c3ccccc3)cc2)CC1,12%
COc1ccc(NC(=O)CSCC(=O)N2CCCc3ccccc32)cc1,-4%
Cc1ccc(S(=O)(=O)c2ncccc2N)cc1,-11%
COc1ccc(C(CC(=O)Nc2ccc(C)cc2)NC(=O)C(F)(F)F)cc1 (centres undefined),3%
COc1ccc(C(=O)N2CCCC(c3nc(-c4ccc(OC)c(OC)c4)no3)C2)c(OC)c1 (centres undefined),-11%
COc1ccccc1C1CC(c2ccc(NS(C)(=O)=O)cc2)=NN1S(=O)(=O)c1ccccc1 (centres undefined),28%
COc1ccccc1CNC(=O)c1ccc2nc(CCc3ccccc3)oc2c1,1%
COCCN(C(=O)CC1OC(=O)c2ccccc21)c1c(N)n(Cc2ccccc2)c(=O)[nH]c1=O (centres undefined),-9%
CCCNC(=O)CSc1ccc(S(=O)(=O)N2CCCCC2)cn1,-10%
Cn1c(=O)oc2cc(S(=O)(=O)N3CCC(C(=O)N4CCc5ccccc5C4)CC3)ccc21,-3%
Cc1ccc(N2C(=O)c3[nH]nc(-c4ccc(Cl)cc4)c3C2c2ccc(F)cc2)cc1 (centres undefined),?
CCOC(=O)c1c(C)c(C#N)c2c3ccccc3ccn12,14%
COc1ccc(-c2noc(CSc3nnc(CCc4ccccc4)n3-c3ccccc3)n2)cc1OC,9%
O=c1[nH]c(SCc2nc3ccccc3c(=O)n2-c2ccccc2C(F)(F)F)nc2ccccc12,-15%
O=C1C(Oc2ccccc2)C(c2cccs2)N1Cc1ccc2c(c1)OCO2 (centres undefined),5%
CCOc1ccc(S(=O)(=O)N(C)c2ccc(OCC(=O)NCC3CCCO3)cc2)cc1 (centres undefined),-19%
O=S(=O)(Nc1ccc(C(F)(F)F)cc1)c1cnc[nH]1,3%

# Arranged by molar mass (rising): four of the compounds above.
SMILES,VDR inhibitor
O=S(=O)(Nc1ccc(C(F)(F)F)cc1)c1cnc[nH]1,3%
CCOC(=O)CN1N=C(c2ccc(Cl)s2)CSC1=O,-23%
COc1ccc(NC(=O)CSCC(=O)N2CCCc3ccccc32)cc1,-4%
O=S(=O)(Cc1ccccc1)N1CCC(N2CCN(c3ccccc3)CC2)CC1,-12%

# (listing goes on)
SMILES,VDR inhibitor
COc1ccc(CCNC(=O)C2CCCN(S(C)(=O)=O)C2)cc1 (centres undefined),-16%
O=C(NCc1cccs1)c1cc(-c2ccccc2)nc2ccccc12,-20%
O=C(NCc1ccccc1Cl)c1ccc2c(=O)n(CC3CCCO3)c(=S)[nH]c2c1 (centres undefined),-5%
COc1cc2c(cc1OC)C(c1ccc(SC)cc1)CC(=O)N2 (centres undefined),2%
COc1ccc(-c2nnc3ccc(SCC(=O)Nc4nccs4)nn23)cc1OC,-24%
O=C(c1ccco1)N1CCN(C(=O)C2(S(=O)(=O)c3ccc(Cl)cc3)CC2)CC1,15%
CCOC(=O)c1c(-c2ccc(C)cc2)csc1NC(=O)c1cc(=O)c2cc(C)ccc2o1,28µM*
OCCC1CN(Cc2ccc3nsnc3c2)CCN1CCc1ccccc1 (centres undefined),4%
COc1ccc(OC)c(NC(=O)c2cc3ccccc3o2)c1,-8%
O=C(CSc1nnnn1Cc1ccccc1)Nc1cccc(F)c1,-9%
CCCCNC(=O)CSc1nc2ccccc2c(=O)n1CC1COc2ccccc2O1 (centres undefined),-4%
O=C(COC(=O)c1cccc(Cl)c1Cl)NCc1cccs1,-2%
C/C(=N\NC(=O)c1nnn(-c2nonc2N)c1-c1ccc2c(c1)OCO2)c1ccc(F)cc1,-6%
CCNc1nc(NCC)n2c(SCC(=O)Nc3ccccc3[N+](=O)[O-])nnc2n1,-7%
CCN(CC(=O)Nc1cc(OC)ccc1OC)Cc1nc2ccccc2c(=O)[nH]1,-18%
O=C(CNC(=O)Cc1ccccc1)NCc1cccc(C(F)(F)F)c1,-5%
O=C(c1ccc(=O)[nH]n1)N1CCc2ccccc2C1,-10%
O=C(Nc1nnc(-c2ccccc2Cl)o1)c1cccnc1,18%
CCOC(=O)[C@H]1[C@H]2COc3cc(OC)ccc3[C@@H]2N2C(=O)c3ccc(F)cc3NC(=O)[C@@]12C,-5%
O=C(COC(=O)/C=C/c1ccccc1)NCc1ccc(Cl)cc1,-16%
COc1ccc(N2CCN(C(=O)COc3ccc4c(C)c(C)c(=O)oc4c3C)CC2)cc1,4%
CC1SC(=S)N(c2ccc(N(C)C)cc2)C1=O (centres undefined),32µM*
Nc1no[n+]([O-])c1-c1ccccc1,-21%
CCN(CC)CCNC(=O)c1ccc2c(c1)ncn2C1CCCCC1,4%
CC(=O)Nc1ccc(C=C(C(C)=O)C(C)=O)cc1,?
O=C(Cn1c(=O)oc2cc(S(=O)(=O)N3CCCC3)ccc21)N1CCN(c2ccccc2F)CC1,-16%
O=C(N/N=C/c1coc2ccccc2c1=O)c1ccccc1,-24%
C=CCn1c(N)c(C(=O)N2CCN(C)CC2)sc1=S,4%
O=C(O)c1cc([N+](=O)[O-])ccc1NCCO,-8%
Cn1c(CN2CCOCC2)nnc1SCC(=O)Nc1ccc([N+](=O)[O-])cc1O,4%
O=C(CSc1ncnc2c1cnn2Cc1ccccc1)Nc1ccc2c(c1)OCCO2,4%
Cc1ccc2nsnc2c1S(=O)(=O)N1CCCC1C(=O)O (centres undefined),5%
O=C(Cc1ccc2c(c1)OCCO2)N1CCN(S(=O)(=O)c2ccccc2C(F)(F)F)CC1,-3%
CCOc1ccc(-n2ccnc2SCC(=O)Nc2ccc3c(c2)OCO3)cc1,4%
COc1ccc2nc(N3C(=O)CC(Cc4cc(C)cc(C)c4)C3=O)sc2c1 (centres undefined),-4%
COc1ccc(CC(=O)N2CCN(c3ccccc3OC)CC2)cc1OC,-12%
COc1cccc(NC(=O)/C(C#N)=C\c2cn(Cc3ccc(C)cc3)c3ccccc23)c1,-10%
C=CCn1c(SCC(=O)c2ccc(O)c(O)c2)nnc1-c1ccc(C)cc1,0%
CC1=NN(c2ccc([N+](=O)[O-])cc2)C(c2ccccc2)C1 (centres undefined),-9%
Cn1cc(S(=O)(=O)Nc2ccc(Cl)cc2Cl)c(=O)n(C)c1=O,-6%
O=C(COc1ccc(F)cc1Br)N1CCc2ccccc21,-4%
CN1C/C(=N\S(=O)(=O)c2ccccc2)N(C)C1=O,2%
CN(C)c1ccc(P(=O)(CC(=O)N/N=C/c2ccc(C#N)cc2)OCCCl)cc1 (centres undefined),-15%
Cc1ccc(NC(=O)C2CCN(S(=O)(=O)c3ccc4[nH]c5c(c4c3)CCCCC5)CC2)cc1,19%
COc1ccc2c(c1)[C@H]1[C@H](CO2)[C@H](c2ccccc2)[C@]2(C)C(=O)Nc3cc(F)c(F)cc3C(=O)N12,-2%
C=C(CN(C)C)C(=O)c1ccc(OC2OC(COC(C)=O)C(OC(C)=O)C(OC(C)=O)C2OC(C)=O)cc1 (centres undefined),40µM*
COC(=O)Cc1c(O)ccn(Cc2ccc(F)cc2)c1=O,-10%
Cc1c(NC(=S)NC(=O)c2cc3ccccc3o2)c(=O)n(-c2ccccc2)n1C,-12%
Cn1cccc1Cc1nnc(SCC(N)=O)n1CCc1ccccc1,-12%
COc1ccc(C2=NOC(Cn3nc(C(=O)NCC4CC4)cc3-c3ccccc3)C2)cc1 (centres undefined),12%
Cc1ccc2[nH]c(=O)c(CN(C(=O)c3cccs3)c3ccccc3)cc2c1,-15%
C#CCOCCOCCOCCNc1nc(N2CCOCC2)nc(N2CCN(C(=O)[C@H](Cc3ccc(O)cc3)n3cc([C@@H](N)C(C)CC)nn3)CC2)n1 (some centres undefined),-29%
COC(=O)C1=C(C)NC(=O)NC1c1ccco1 (centres undefined),-5%
COc1ccc2c(c1)c(CC(=O)NCc1cc([N+](=O)[O-])ccc1O)c(C)n2C(=O)c1ccc(Cl)cc1,8%
Cc1cc(C(=O)COc2ccc(C#N)cc2)c(C)n1C1CC1,-7%
CCCC(=O)Nc1nc2nc(-c3ccccc3)cc(=O)n2[nH]1,7%
CC(C)c1ccc(C(=O)NN2CCOCC2)cc1,-9%
O=S(=O)(NC1CCCCC1)c1ccc(Cl)s1,14%
COC(=O)C(NC(=O)CNS(=O)(=O)c1ccc(Br)cc1)c1ccccc1 (centres undefined),0%
CN(Cc1ccccc1)C(=O)CC(c1ccccc1)c1cc(Cl)ccc1O (centres undefined),-9%

# Other results follow:
SMILES,VDR inhibitor
O=C(Oc1ccc(O)cc1)C12CC3CC(CC(C3)C1)C2,-1%
O=C(c1cccs1)N1CCN(c2ccc(Cl)cc2)CC1,-1%
COc1ccc(C(CNC(=O)c2cccn2C)N2CCOCC2)cc1 (centres undefined),-9%
c1ccc(Cn2nnc3c(N4CCCC4)ncnc32)cc1,28%
CCN(CC)C(=O)/C(=C\c1cccc([N+](=O)[O-])c1)NC(=O)c1ccco1,4%
CCOc1[nH]n(-c2ccccc2)c(=O)c1C=NCc1ccncc1,0%
COC(=O)N1CCC2(CCCN(Cc3cc(C(F)(F)F)cc(C(F)(F)F)c3)C2)CC1,-2%
Cc1ccc(C)c2nc(Cl)c(C3NC(=O)c4ccccc4N3)cc12 (centres undefined),9%
Cc1ccc(C2C(=O)N(C3CCCCCC3)CC(=O)N2C(C)C)cc1 (centres undefined),12%
CC(C)Oc1ccc(C(=O)Nc2ccc(N(C)C)cc2)cc1,-4%
CCOC(=O)C1=C(COC(=O)CSc2ccc(C)cc2C)NC(=O)NC1C (centres undefined),1%
CNC(=O)NNC(=O)c1csc(-c2ccc(C(F)(F)F)cc2Cl)n1,10%
COc1cccc(CC(=O)NNC(=O)c2c(-c3ccccc3)noc2C)c1,-13%
CCN(CC)S(=O)(=O)c1ccc(N2CCCC2)c(NC(=O)c2ccncc2)c1,-19%
O=C(Nc1ccccc1-c1ccccc1)C1CCCCC1,-6%
COc1cccc(CCNC(=O)c2cnc3sc(N4CCCCCC4)nn3c2=O)c1,10%
COc1cc2c(c3oc(-c4ccccc4)cc(=O)c13)C=CC(C)(C)O2,-21%
CCOC(=O)N1CCN(C(=O)c2cc3ccccc3o2)CC1,-5%
CCN(CC(=O)Nc1c(F)cccc1F)C(=O)C1CCN(S(=O)(=O)c2ccc(C)cc2C)CC1,6%
COc1ccc(S(=O)(=O)N2CCC(C(=O)Nc3ccc4c(c3)OCCO4)CC2)cc1OC,-2%
O=C(COc1cccc(Cl)c1)Nc1cc(S(=O)(=O)N2CCOCC2)ccc1N1CCOCC1,8%
CCOC(=O)CN(C(=O)Cn1nnc2ccccc21)C(C(=O)NCCOC)c1ccccc1C (centres undefined),4%
COc1ccc(Cl)cc1NC(=O)Cn1ccn(-c2cc(C)cc(C)c2)c(=O)c1=O,10%
Cc1cc(N2CCN(c3nnnn3-c3ccccc3)CC2)n2ncnc2n1,0%
C/C(=C\c1ccccc1)CN1CCC(C(=O)N2CCC(C)CC2)CC1,-7%
O=C(Cn1cc(S(=O)(=O)Cc2cccc(Cl)c2)c2ccccc21)Nc1ccccc1C(F)(F)F,20%
CC[C@@]12C(=O)N(c3cccc(F)c3)C(=O)N1[C@H](c1ccc(OC)cc1)[C@@H]1C(=O)N(C(C)(C)C)C(=O)[C@@H]12,-15%
CC1CCC2(CC1)N=C(c1ccccc1)C(=O)N2CC(=O)Nc1ccc(F)c(Cl)c1 (centres undefined),3%
CN1CCN(C(=O)/C=C\C(=O)O)CC1,1%
COC(=O)c1cc(S(=O)(=O)Nc2cccc(-c3cnco3)c2)oc1C,-8%
CCC(=O)N1CCc2cc(S(=O)(=O)NC(Cc3ccccc3)C(=O)Nc3nccs3)ccc21 (centres undefined),-27%
CCOC(=O)c1nn(-c2cccc(Cl)c2)c2nc(Nc3ccccc3)cc(=O)n12,-15%
O=C(Cc1ccc(S(=O)(=O)N2CCOCC2)s1)Nc1ccc(N2CCOCC2)cc1,-10%
Cc1ccccc1OCC(=O)NCC(c1cccs1)N1CCOCC1 (centres undefined),-7%
COC(=O)c1cc(S(=O)(=O)NCCc2ccc(Cl)cc2)c[nH]1,-5%
CC(=O)c1ccc(-n2c(C)ccc2-c2ccccc2)cc1,5%
O=C(NCc1ccccn1)Nc1ccccc1Cl,35%[activator]
O=C(Nc1cccc(S(=O)(=O)N2CCOCC2)c1)c1cn(-c2ccccc2)nc1-c1ccc(F)cc1,-10%
Cc1c(NC(=O)C(=O)/C=C(\O)c2ccc(Cl)cc2)c(=O)n(-c2ccccc2)n1C,-3%
COc1ccc(NC(=O)CSc2nnnn2C2CCCC2)cc1,-5%

# The last 5 compounds of the section above come first, to join the parts:
SMILES,VDR inhibitor
CC(=O)c1ccc(-n2c(C)ccc2-c2ccccc2)cc1,5%
O=C(NCc1ccccn1)Nc1ccccc1Cl,35%[activator]
O=C(Nc1cccc(S(=O)(=O)N2CCOCC2)c1)c1cn(-c2ccccc2)nc1-c1ccc(F)cc1,-10%
Cc1c(NC(=O)C(=O)/C=C(\O)c2ccc(Cl)cc2)c(=O)n(-c2ccccc2)n1C,-3%
COc1ccc(NC(=O)CSc2nnnn2C2CCCC2)cc1,-5%
CCOC(=O)c1c(NC(=O)c2ccc(S(=O)(=O)N3CCOCC3)cc2)sc2c1CCN(C(C)C)C2,0%
COc1cccc(OC)c1C(=O)NC(=S)Nc1cc(-c2nc3ccccc3[nH]2)ccc1Cl,-17%
Cc1sc2ncnc(N3CCN(Cc4ccccc4)CC3)c2c1-c1ccc(F)cc1,-19%
O=C(O)Cn1cc(/C=C2/SC(=O)N(CC(=O)N3CCCCCC3)C2=O)c2ccccc21,?

# With a hit mark in VDR inhibitor, among the entries above:
SMILES,VDR inhibitor
CCOC(=O)c1c(-c2ccc(C)cc2)csc1NC(=O)c1cc(=O)c2cc(C)ccc2o1,28µM*
CC1SC(=S)N(c2ccc(N(C)C)cc2)C1=O (centres undefined),32µM*
C=C(CN(C)C)C(=O)c1ccc(OC2OC(COC(C)=O)C(OC(C)=O)C(OC(C)=O)C2OC(C)=O)cc1 (centres undefined),40µM*

# A portion of the library (hit frequency here may not be typical).
